Cruzain inh Det: blocks cruzain activity in presence of Triton detergent; purified cruzain, Z-FR-AMC fluorescence, 0.01% Triton; Potency, µM, for the others: max response, negative = inhibition, hits mostly inhibitors; actives 0.43% (n = 200,000); AID 1478;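 also: plate controls were neutral wells for no effect and buffer without enzyme for full effect; nearly all actives have a fitted effect of over 40% in size; top concentration of the series not given in the record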
Target sequence (P25779 123-467 limits assumed): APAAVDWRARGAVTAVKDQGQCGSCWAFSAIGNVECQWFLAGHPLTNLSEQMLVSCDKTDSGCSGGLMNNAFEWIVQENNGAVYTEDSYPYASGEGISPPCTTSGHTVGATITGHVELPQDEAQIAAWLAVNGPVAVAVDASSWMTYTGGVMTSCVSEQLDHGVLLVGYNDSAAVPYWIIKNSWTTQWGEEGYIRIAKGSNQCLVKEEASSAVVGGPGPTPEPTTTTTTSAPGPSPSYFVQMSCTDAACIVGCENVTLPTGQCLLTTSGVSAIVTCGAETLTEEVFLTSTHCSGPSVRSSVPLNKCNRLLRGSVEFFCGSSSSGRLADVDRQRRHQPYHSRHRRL
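Detergent-containing run (0.01% Triton X-100) in acetate buffer pH 5.5 with 5 mM DTT: enzyme at 1.5 nM final, 15 min compound preincubation at room temperature, then 2 uM Z-FR-AMC substrate. Activity taken as 60 s fluorescence increase at 360/450 nm.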
SARS PLP yeast: blocks SARS-CoV papain-like protease in a yeast assay; S. cerevisiae expressing SARS-CoV PLpro, growth rescue; control for the full effect not named in the record; Potency, µM (titrated, usually from 32.9 µM), for the others: at the top dose activity, positive = growth rescue; actives 0.19% (n = 330,000); active means well fitted rising curve with a large enough effect; inconclusive means small, poorly fitted or top-dose-only effect; inactive means no such curve, though single readings can be large or run the other way; also: 0% is about no effect; nearly all actives have a fitted effect of over 55% in size; growth read by luminescence after 48 h
LASV entry inh: Lassa virus entry inhibition | Lassa virus pseudotype entry inhibition, cell reporter; control for the full effect not named in the record | Potency, µM (doses to about 37.9 µM), inactives show top-dose activity change, negative = inhibition, usual class: inhibitors | actives 1.2% (n = 300,000); active means well fitted inhibition curve with a large enough effect; inconclusive means small, poorly fitted or top-dose-only effect, or effect the other way; inactive means flat fitted curve, though single readings scatter; tested in HEK293 cells; also: % is scaled to controls: 0 for no effect and ±100 for the full control effect; nearly all actives have a fitted effect of over 50% in size; luciferase read-out
RE007 growth inh: less growth of the S. pombe RE007 Vpr strain; S. pombe RE007 Vpr strain, BacTiter-Glo ATP luminescence, 24 h; control for the full effect not named in the record; actives 0.21% (n = 360,000); Potency, µM (top dose mostly 92.2 µM), for inactives: top-dose activity change, negative = less growth; active = well fitted falling curve with a large enough effect; inconclusive = small, poorly fitted or top-dose-only effect; inactive = no such curve, though single readings can be large or run the other way;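 also: % is scaled to controls: 0 for no effect and ±100 for the full control effect; nearly all actives have a fitted effect of over 50% in size; the assay follows cell death caused by Vpr and the record does not say whether a fall means rescue or toxicity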
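Fission yeast RE007 carrying one integrated HIV-1 vpr copy, seeded at OD 0.01 in PMG+AL medium with 23 nL pinned compound. Grown 24 h at 30 degrees; viability read by BacTiter-Glo luminescence after 5 min.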
Cruzain inh noDet: cruzain (T. cruzi) inhibition without detergent; Potency, µM, for inactives: max response, negative = inhibition, usual class: inhibitors; actives 2.3% (n = 200,000); P25779; purified cruzain, Z-FR-AMC fluorescence, no detergent; AID 1476;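 also: plate controls were enzyme without inhibitor for no effect and buffer without enzyme for full effect; nearly all actives have a fitted effect of over 40% in size; top concentration of the series not given in the record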
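Detergent-free condition (0.00005% Triton X-100) in acetate buffer pH 5.5 with DTT. 1.5 nM enzyme and compound were pre-mixed 15 min, then 2 uM Z-FR-AMC substrate added; reaction progress from fluorescence change between first and third reads (60 s).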
2A StopGo: FMDV 2A StopGo reporter, luciferase signal | Potency, µM (top dose mostly 57.9 µM), for inactives: at the highest dose signal change, negative = less light | human cells with a luciferase reporter of 2A StopGo recoding; control for the full effect not named in the record | actives 1.2% (n = 410,000); active = well fitted falling curve with a large enough effect; inconclusive = small, poorly fitted or top-dose-only effect; inactive = no such curve, though single readings can be large or run the other way; tested in HEK293T cells; also: % is scaled to controls: 0 for no effect and ±100 for the full control effect; nearly all actives have a fitted effect of over 45% in size; luciferase light after 4 h
NS1 function inh: blocks influenza NS1 protein function | AID 2326 | actives 0.4% (n = 270,000) | Potency, µM (highest dose often 46.1 µM), without a hit: top-dose activity, positive = more growth | S. cerevisiae slowed by influenza A NS1, growth recovery by OD600; active means well fitted rising curve with a large enough effect; inconclusive means small, poorly fitted or top-dose-only effect; inactive means no such curve, though single readings can be large or run the other way; also: nearly all actives have a fitted effect of over 50% in size
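In this qHTS, NS1 from influenza A is expressed in budding yeast, where it slows growth. Cells are switched from glucose to 2% galactose medium (pH 6.0, -URA), treated with compound, and growth recovery is read at OD600.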
Marburg entry inh: blocks Marburg virus binding to or entry into cells. Marburg virus pseudotyped entry inhibition, cell reporter; control for the full effect not named in the record; about a third of the inactives were read at about 46 µM. Potency, µM (titrated, usually from 37.8 µM), inactives show at the highest dose activity change, negative = inhibition, hits mostly inhibitors. actives 1.8% (n = 300,000). AID 540276; active = well fitted inhibition curve with a large enough effect; inconclusive = small, poorly fitted or top-dose-only effect, or effect the other way; inactive = flat fitted curve, though single readings scatter; tested in HEK293 cells; about a fifth of its hits are not listed in these tables; also: % is scaled to controls: 0 for no effect and ±100 for the full control effect; luciferase read-out
* hit, by the source's call; ? = inconclusive; nt = no result given; & = joins results of further samples; [ ] = dose if it differs, or a comment. Unless noted, calls follow the shape of the dose curve; as a rule, active = well fitted curve in the direction sought with a large enough effect; inconclusive = small, poorly fitted or top-dose-only effect, or another doubt; inactive = no such curve, though single readings can be large; an effect the other way counts as inactive or inconclusive. Potency is read from the fitted curve at half-maximal effect.

molecule	Cruzain inh Det	SARS PLP yeast	LASV entry inh	RE007 growth inh	Cruzain inh noDet	2A StopGo	NS1 function inh	Marburg entry inh
COc1ccc(/C=C/C(=O)c2ccccc2O)cc1CN1CCOCC1	1.3%	2%	?	-3%	3%	?	2%	11µM*
S=C(NCCc1ccccc1)Nc1cccc2cnccc12	nt	-2%	?	6%	nt	-12%	nt	-29%[46.1 µM]
Cc1ccc(NC(=O)CN2C(=O)c3cccnc3Sc3ccccc32)cc1C	-7.0%	nt	0%[46.1 µM]	nt	21%	17%	nt	nt
CSc1ccccc1NC(=O)c1cc(C(C)C)on1	-1.9%	-8%	11%	-28%	0%	11%	-7%	8%
COc1ccc(/C=C/C(=O)N(CCC(N)=O)c2ccccc2)cc1S(=O)(=O)N1CCOCC1	nt	-5%	-2%	-13%	nt	22%	nt	2%[46.1 µM]
CC(C)N(CC#CC(O)(c1ccccc1)c1ccccc1)CCO	-2.1%	6%	16%	-8%	2%	-7%	3%	-4%
CC(C)(C)c1ccc(C(=O)N/C(N)=N/c2nc3ccccc3o2)cc1	-4.5%	?	?	-10%	?	?	?	-23%
COc1ccc(C(=O)c2ccc(Cl)cc2)c2ccccc12	-1.4%	-3%	?	-2%	-5%	-10%	7%	?
CCn1c(=O)c(CCC(=O)NCCN2CCOCC2)c(C)c2c(C)nn(-c3ccccc3)c21	nt	-12%	6%[46.1 µM]	4%	nt	-10%	6%	10%[46.1 µM]
CCOC(=O)C(C)Sc1nc(-c2ccccn2)ncc1OC (stereo not drawn)	nt	4%	-15%	10%	nt	4%	nt	?
Cc1nnc(N/N=C/c2ccccc2C(F)(F)F)n1N	nt	-3%	nt	-13%	nt	13%	-2%	nt
Oc1c(C(c2ccccc2)N2CCC3(CC2)OCCO3)sc2nc(-c3ccco3)nn12 (stereo not drawn)	-0.9%	nt	1%[46.1 µM]	nt	22%	11%	nt	nt
Cc1cc2n(n1)CCCN2C(=O)Nc1ccccc1F	0.1%	nt	26%[46.1 µM]	nt	-6%	-2%	nt	nt
CCCCOc1ccc(C(=O)NNC(=S)NC(=O)CC)cc1	2.4%	-77%	?	?	-5%	?	-58%	?
Cc1cc2c(cc1S(=O)(=O)CCC(=O)N1CCCC(C)C1)OCC(=O)N2 (stereo not drawn)	-7.8%	nt	-11%[46.1 µM]	nt	?	-22%	nt	nt
Cc1noc(C)c1COc1cccc(C(=O)OCC(=O)NC(=O)c2ccc(OC(F)F)cc2)c1	-3.0%	11%	9%	-14%	?	0%	7%	?
COc1cc(OC)c(C(=O)Nc2ccccc2-c2ccccc2)cc1OC	-12%	-31%	-1%	4%	?	-29%	-1%	-17%
CC1Cc2nc(SCC(=O)N3CCOCC3)n(-c3ccccc3)c(=O)c2S1 (stereo not drawn)	-1.3%	2%	nt	-10%	-18%	-17%	-35%	nt
CCC(C)NC(=O)CN1C(=O)COc2ccc(S(=O)(=O)N3CCOCC3)cc21 (stereo not drawn)	2.5%	-2%	6%[46.1 µM]	-14%	4%	-5%&9%	0%	-3%&-3%[46.1 µM]
CCCOC(=O)CC1C(=O)NCCN1C(=O)OC(C)(C)C (stereo not drawn)	nt	-1%	nt	9%	nt	8%	2%	-10%[46.1 µM]
COc1ccc(CCOC(=O)CNC(=O)c2ccc(Cl)cc2Cl)cc1	nt	4%	-9%	7%	nt	-2%	-10%	0%
NS(=O)(=O)c1ccc(NC(=O)CSC2=NC(=O)C(c3ccccc3)C(=O)N2)cc1 (stereo not drawn)	0.4%	-1%	?	14%	-5%	-9%	3%	22%
CC(=O)Oc1c(C(=O)c2nnc(C)o2)c(=O)n(C)c2ccccc12	-2.8%	-1%	-2%	-5%	9%	?	-7%	?
Cc1ccc(N/C(N)=N/c2nc(CSc3nnc(C)s3)cc(=O)[nH]2)c(C)c1	nt	1%	nt	7%	nt	-7%	1%	nt
CCn1c(CCNC(=O)c2ccc(C)cc2)nnc1SCc1ccc(Cl)c(Cl)c1	-6.2%	5%	-9%	18%	?	-20%	8%	?
CCOC(=O)Cn1nnnc1CN(Cc1ccc(OC)cc1)Cc1cc2cc(CC)ccc2[nH]c1=O	-15%	?	?	0%	5%	nt	-1%	?
CCC(C)(C)n1c(=O)[nH]c2c(c1=O)CCC2	13%	-3%	4%	-12%	18%	-10%	5%	-3%[46.1 µM]
O=C1CNC(=O)N1CC(O)Cn1c2ccccc2c2ccccc21 (stereo not drawn)	nt	4%	nt	5%	nt	-5%	-1%	nt
Cc1ccccc1S(=O)(=O)Cc1ccc(C(=O)N2CCN(c3cccc(Cl)c3)CC2)o1	-3.9%	nt	?	nt	?	-9%	nt	?
CC(C)(C)C(=O)NNC(=O)COc1ccc2ccccc2c1Br	nt	1%	nt	-8%	nt	12%	-4%	nt
CCCCCOC(=O)Cn1c(=O)oc2ccccc21	-2.2%	1%	nt	1%	-2%	-16%	-3%	nt
CCc1ccc(NC(=O)NNC(=O)c2cc3ccccc3cc2O)cc1	nt	-6%	nt	-2%	nt	17%	5%	nt
O=C1C(=O)N(CCN2CCOCC2)C(c2ccccn2)/C1=C(/O)c1ccccc1 (stereo not drawn)	-2.5%	9%	3%	6%	-7%	14%	5%	23%
CCn1c(=O)c(C(=O)NNS(=O)(=O)c2ccc(Br)cc2)c(O)c2ccccc21	nt	2%	-4%[46.1 µM]	-10%	nt	-9%	0%	?
CC(C)N(C(=O)C[n+]1ccc(/C=N/O)cc1)C(C)C	-2.5%	5%	12%	-3%	3%	-9%	-2%	18%&18%
CC(Sc1ccccn1)C(=O)Nc1ccc(S(N)(=O)=O)cc1 (stereo not drawn)	-6.7%	8%	3%	0%	4%	-8%	-6%	-2%
CN(CC(=O)Nc1ccccc1C(F)(F)F)C(=O)COc1ncnc2sccc12	-1.6%	0%	2%	9%	-3%	-24%	3%	4%
Nc1nc(NCCCN2CCOCC2)nc(Nc2ccc(F)cc2)c1[N+](=O)[O-]	-7.3%	0%	-4%	7%	9%	-4%	8%	?
O=[N+]([O-])c1ccc(S(=O)(=O)NCC2CCCO2)cc1 (stereo not drawn)	-2.3%	3%	-21%	1%	1%	0%	-9%	4%
O=C(CC1C(=O)NC2CCCCC2N1C(=O)c1ccc(F)cc1)Nc1ccccc1 (stereo not drawn)	6.6%	-3%	11%	-8%	3%	nt	1%	8%
Cc1sc2nc(CN(CCc3ccccc3)C(=O)c3ccco3)[nH]c(=O)c2c1C	5.3%	4%	-14%	-8%	?	-22%	8%	27%
NC(=O)CSc1n[nH]c(-c2ccco2)n1	nt	-1%	-1%[46.1 µM]	38%	nt	-1%	-7%	?
CCOC(=O)c1sc(NC(=O)c2ccc(C)s2)cc1C	-2.5%	-3%	?	-3%	-2%	37%[activator]	-20%	-19%
COc1ccc(CC(NC(C)=O)C(=O)NC2CCN(C(=O)Nc3ccccc3C)CC2)cc1OC (stereo not drawn)	nt	1%	0%[46.1 µM]	2%	nt	1%	-1%	19%[46.1 µM]
Cc1ccc(OCCn2c(=O)oc3ccc(C)cc32)cc1	nt	-1%	-5%[46.1 µM]	9%	nt	31%[activator]	-3%	-14%[46.1 µM]
CCCCCN(C(=O)NC(=O)Nc1ccccc1C)S(=O)(=O)c1ccccc1	-4.3%	?	-1%	2%	0%	35%[activator]	-10%	?
Cc1nc2ccc(S(=O)(=O)N(CC(=O)Nc3cccc(Cl)c3)Cc3ccccc3)cc2s1	-4.6%	nt	-25%[46.1 µM]	nt	-1%	?	nt	nt
COc1ccc(CCN(Cc2cc3cccc(C)c3[nH]c2=O)C(=O)NC2CCCCC2)cc1OC	-10%	12%	1%	-12%	4%	-22%	1%	-2%
O=C(O)c1cccc(NC(=S)N/N=C/c2ccccc2OCc2cccc(Br)c2)c1	nt	-2%	3%	-17%	nt	8%	nt	-10%
CC/C(C)=N/Nc1nc2c(c(=O)[nH]c(=O)n2C)n1Cc1ccccc1	nt	-3%	?	-25%	nt	-10%	7%	?
CCOC(=O)N1CCc2c(sc(NCc3ccc(OCC)cc3)c2C(=O)Nc2ccc(OC)cc2OC)C1	-4.3%	nt	?	nt	?	?	nt	nt
COc1ccc(C(=O)[C@H]2[C@H]3C(=O)N(c4ccc(OC(C)=O)cc4)C(=O)[C@H]3C3C=CC=NN32)cc1 (stereo partly drawn)	nt	1%	?	-15%	nt	?	7%	0%[14.2 µM]
CCOC(=O)c1cc(CC)sc1NC(=O)c1cc([N+](=O)[O-])ccc1N1CCOCC1	1.0%	8%	?	-15%	-17%	0%	9%	?
Cc1cc(S(=O)(=O)NCc2ccccc2)ccc1OCC(=O)NCc1cccnc1	nt	1%	10%[46.1 µM]	3%	nt	28%	1%	-21%[46.1 µM]
C/C(Cl)=C/Cc1c(C)[nH]c2ccc(C)cc2c1=O	5.7%	-21%	9%	20%	-10%	44%[activator]	-42%	17%
CCC1(C)Cc2ccccc2-c2nc(NCCCO)n(C)c(=O)c21 (stereo not drawn)	nt	0%	nt	-6%	nt	-2%	1%	nt
COc1ccc(/C=C/C(=O)Nc2ccc(Cl)cc2Cl)cc1	-1.1%	nt	0%[46.1 µM]	nt	4%	30%	nt	nt
Cc1ccc(C(=O)C[n+]2cc(-c3ccc(C)cc3)n3c2CCCCC3)cc1	5.5%	2%	?	6%	7%	10µM*	2%	?
CCOC(=O)c1ccccc1NC(=O)CN1C(=O)CCS(=O)(=O)c2ccccc21	-1.0%	-2%	-13%	-1%	-8%	54%[activator]	-4%	6%&6%

Compound activity: PubChem, National Center for Advancing Translational Sciences (NCATS)
